VDR inh = Inhibitors of the vitamin D receptor (VDR): qHTS; Vitamin D3 receptor (Homo sapiens), P11473; VDR-SRC2-3 peptide fluorescence polarization, 2 h; Potency, µM, for inactives: max response, negative = inhibition, hits mostly inhibitors; 400,000 tested, 0.93% active; AID 504847, 2011; active = well fitted inhibition curve with a large enough effect; inconclusive = small, poorly fitted or top-dose-only effect, or another doubt; inactive = no such curve, though single readings can be large or run the other way; also: series mostly up to about 120 µM
Target sequence (P11473 whole entry, looked up): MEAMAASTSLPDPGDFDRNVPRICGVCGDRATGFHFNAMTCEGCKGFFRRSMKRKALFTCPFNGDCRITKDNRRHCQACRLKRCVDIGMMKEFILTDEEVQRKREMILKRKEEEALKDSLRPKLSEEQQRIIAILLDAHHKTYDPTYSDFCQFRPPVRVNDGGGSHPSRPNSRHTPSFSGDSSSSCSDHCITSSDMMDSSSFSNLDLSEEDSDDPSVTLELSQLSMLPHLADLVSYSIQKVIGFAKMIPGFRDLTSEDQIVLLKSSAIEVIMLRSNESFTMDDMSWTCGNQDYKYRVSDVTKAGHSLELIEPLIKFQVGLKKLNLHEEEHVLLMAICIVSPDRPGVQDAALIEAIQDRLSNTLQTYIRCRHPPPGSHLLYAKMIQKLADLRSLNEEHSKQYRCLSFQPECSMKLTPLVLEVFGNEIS
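Fluorescence polarization assay measuring small-molecule disruption of VDR binding to the coregulator peptide SRC2-3. Compounds were pin-transferred (23 nl) into the reagent mix and incubated 2 h at room temperature before reading.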
* = called active by the depositor; ? = inconclusive; [ ] = dose if it differs, or a comment. % is scaled to controls: 0 for no effect and ±100 for the full control effect; potency is read from the fitted curve at half-maximal effect. A portion of the library; the hit share may differ from the screen's.

SMILES,VDR inh
COc1ccc(C2=C(C(C)=O)Sc3nnc(-c4ccc(Cl)cc4)n3N2C(C)=O)cc1OC,-1%
Cc1ccccc1S(=O)(=O)N1C[C@H]2CON(C)[C@H]2C[C@H]1c1cccc(Oc2ccccc2)c1,-11%
COc1ccc(CCN2C(=O)CSC2c2ccc(F)cc2)cc1 (stereo not given),-5%
COc1ccccc1-c1cc(C(F)(F)F)n2ncc(C(=O)N3CCc4ccccc4C3)c2n1,-1%
N#Cc1cccc2cnccc12,1%
CN(C)C(=O)c1ccc(-c2nccc(-n3ccnc3)n2)cc1,2%
CCNc1nc(NCC)n2c(SCC(=O)Nc3ccc(OC(F)F)cc3)nnc2n1,-14%
Cc1ccc(OCC(=O)OCCN2C(=O)c3ccccc3C2=O)cc1C,1%
COc1ccc(NC(=O)C(=O)N/N=C\c2ccc(CNC(=O)C(=O)Nc3ccc(C)c(C)c3)o2)c(OC)c1,8%
CC(C)(C)CNC(=O)c1ccc2c(c1)S(=O)(=O)c1cc(Cl)ccc1C2=O,-5%
CCOC(=O)N1CCN(C(=O)c2cnn3c(C(F)F)cc(-c4ccc(C)cc4)nc23)CC1,1%
COc1cc(C(=O)Nc2ccc(C)cc2)c2ccccc2n1,-7%
CC(C)OC(=O)c1ccc(COc2ccc3ccc(=O)oc3c2)o1,-7%
CC(C)CCNC(=O)CCc1nnc2ccc(N3CCC(C)CC3)nn12,-15%
O=C(CCCn1c(=O)[nH]c2ccsc2c1=O)N1CCN(c2ccccn2)CC1,-6%
CCOc1ccccc1NC(=O)CCn1c(=O)oc2ccccc21,-3%
CCOc1ncccc1C(=O)OCC(=O)NCc1ccccc1,-4%
C=C(C)CNC(=O)C1CCC(=O)N(CCCc2ccccc2)C1 (stereo not given),14%
O=C(Cn1cnc2ccccc2c1=O)OCCCCN1C(=O)c2ccccc2C1=O,-2%
O=C(c1ccc(Oc2ccccc2)cc1)c1nc2c(n1O)CCCC2,3%
CC(=O)Nc1nonc1-c1nc2ccccc2n1CCC(C)C,2%
CC1CC(=O)N(CC(=O)Nc2ccccc2F)c2ccccc2S1(=O)=O (stereo not given),7%
Cn1c2ccccc2c2ncn(CCN3CCOCC3)c(=O)c21,-5%
COc1cc(OC)cc(C(=O)N[C@H](C(=O)OCC(=O)Nc2ccc(C(C)C)cc2)C(C)C)c1,-10%
CCn1c(COc2ccccc2)nnc1SCC(=O)Nc1cc(C)ccc1OC,-5%
Cc1ccc(S(=O)(=O)CC(=O)Nc2nnc(C(C)(C)C)s2)cc1,9%
CC(C)Nc1nc(Cl)nc(NN(C)c2nc(N(C)C)nc(N(C)C)n2)n1,-4%
O=C(NCc1n[nH]c(=S)n1-c1ccccc1)c1ccc(S(=O)(=O)N2CCOCC2)cc1,-12%
COc1ccccc1N1CCN(C(=O)Cc2c(C(=O)O)c(C)cn2C)CC1,12%
COC(=O)c1cnn(-c2ccccc2)c1/C=N/NC(=S)Nc1ccccc1,-19%
COC(=O)c1cccc(NC(=O)Cc2nc(-c3ccccc3)sc2-c2ccc(C)cc2)c1,-23%
Cc1ccccc1NC(=O)c1cc2sccc2n1Cc1ccc(F)cc1,-6%
Cc1cc(Cl)ccc1OCCCC(=O)N1CCCc2ccccc21,10%
CCC1(c2ccccc2)NC(=O)N(CC(=O)NC2(C#N)CCCCC2)C1=O (stereo not given),5%
Cc1cc2cc(CNC(=O)c3ccc(S(=O)(=O)N(C)C)cc3)ccc2n1C,0%
Cc1ccsc1/C=N/NC(=O)C(=O)NCC(C)C,11%
Cc1cc(C(=O)N2CCN(C/C=C/c3ccccc3)CC2)no1,11%
CCc1ccccc1NC(=O)CSc1ncc2c(n1)-c1cc(Cl)ccc1N(Cc1ccccc1)S2(=O)=O,-5%
CC(=O)N1CCOc2ccc(S(=O)(=O)NCc3ccc(Cl)cc3)cc21,11%
CC(=O)Nc1c(O)nc(SCc2ccccc2C#N)[nH]c1=O,-5%
COc1ccc2[nH]c3c(c2c1)CCN(C(=O)CCC1CCCC1)C3c1ccc(F)cc1 (stereo not given),12%
CCN1CCc2nc3sc(C(=O)Nc4cccc(Cl)c4C)c(N)c3cc2C1,-5%
Cc1ccc(S(=O)(=O)CCC(=O)Nc2cccc(Cl)c2)cc1,-8%
CCC(C)NC(=O)C1CCN(S(=O)(=O)c2cccc3nonc23)CC1 (stereo not given),-8%
Cc1nnc2c3ccccc3c(-c3ccc(O)cc3)nn12,11%
O=C(C1CCCN(S(=O)(=O)Cc2ccccc2)C1)N1CCCCC1 (stereo not given),-13%
CCCn1c(C)cc(C(=O)COc2ccc(-c3nnco3)cc2)c1C,?
O=C(CSc1ccc2ccccc2c1)N1CCN(c2ccc(O)cc2)CC1,-8%
CC(=O)Nc1ccc(S(=O)(=O)N/N=C/c2ccc(C)s2)cc1,15%
O=C(COC(=O)/C=C/c1ccco1)NCCc1ccccc1,-14%
O=C(NC1CCN(C(=S)Nc2ccc(Cl)cc2)CC1)c1ccco1,10%
O=C(O)c1ccc(N/N=C/c2cn(Cc3ccc(F)cc3)c3ccccc23)cc1,?
CCOc1ccc(OCC)c(NS(=O)(=O)c2cc(-c3cc(C)no3)ccc2C)c1,16%
COCCCNC(=O)CCc1c(C)nc2c(c(C)nn2-c2ccccc2)c1C,-14%
C/C(=C\C(=O)O)C(=O)Nc1nccs1,13%
CCOc1cc(/C=C2/C(=O)ON=C2C)ccc1O,?
CC1(C)COC(c2ccc(F)c([N+](=O)[O-])c2)=N1,-24%
Cc1cc(C)n(-c2ncnc3sc4c(c23)CC(C)CC4)n1 (stereo not given),14%
CN(C)c1ccc(CN(C(=O)c2cccs2)C2CCS(=O)(=O)C2)cc1 (stereo not given),11%
COC(=O)c1ccc(NC(=O)c2cc3cc4ccc(OC)c(Cl)c4nc3s2)cc1,4%

(continued)
SMILES,VDR inh
O=C(Nc1cccc(C(F)(F)F)c1)c1ccco1,0%
Cc1ccc([C@@H]2[C@@H]3C(=O)N(C)C(=O)[C@@H]3[C@]3(C)C(=O)N(Cc4ccccn4)CC(=O)N23)o1,2%
NC(Cc1cccc2nsnc12)C(=O)O (stereo not given),4%
CCC(C)(C)NC(=O)C1c2ccccc2Oc2ccccc21,-1%
O=C(NC(=S)Nc1cccc(C(F)(F)F)c1)c1ccc2nonc2c1,-1%
CN1CCN(c2ccc(NC(=O)N3CCc4ccccc43)cc2)CC1,12%
CCCCOc1ccc(Br)cc1/C(C)=N/NC1=NCCN1,-9%
COC(=O)CC1C(C)(C)C(=O)C2CC3C4=CC(=O)OC(c5ccoc5)[C@]4(C)CCC3[C@@]1(C)C2=O (stereo not given in full),9%
O=c1n(Cc2ccc(Cl)cc2)c2sc3c(c2c2ncnn12)CCCC3,-7%
CC(C)CS(=O)(=O)c1oc(-c2ccc(F)cc2)nc1S(=O)(=O)c1ccccc1,?
O=C(NCc1ccncc1)c1ccc(Br)cc1,10%
Cc1sc(-n2c(C)cc(C=O)c2C)c(C(=O)O)c1C,5%
O=S(=O)(c1ccc2nc(Cc3cccc(C(F)(F)F)c3)[nH]c2c1)N1CCOCC1,-13%
COc1ccc(NC(=O)COC(=O)c2c3c(nc4ccccc24)CCCC3)cc1,14%
O=C(Nc1cc(S(=O)(=O)N2CCOCC2)ccc1N1CCOCC1)c1cnccn1,-17%
Cc1nc(NC(=O)CSc2cc(C)c3ccccc3n2)c(Cl)cc1Cl,-9%
O=C(O)CSCc1nc2cccnc2n1C1CCCCC1,22%
CCOC(=O)c1cccc(NC(=O)Cn2nc3c(cc2=O)CCCC3)c1,0%
C=CCNC(=O)c1ccccc1NS(=O)(=O)c1ccc(OC)c(C(=O)N2CCOCC2)c1,-4%
O=c1[nH]c2cc(Cl)c(Cl)cc2[nH]c1=O,-10%
CCOC(=O)C1CCN(S(=O)(=O)CCNC(=O)c2ccccc2)CC1,-5%
CCCCn1c(N)c(N(CCC(C)C)C(=O)COC(=O)c2ccc(CC)cc2)c(=O)[nH]c1=O,-7%
C=C[C@](C)(O)CCC1C(=C)CCC2[C@@](C)(CO)CCC[C@@]12C (stereo not given in full),-15%
OC(CCN1CCC2CCC(C2)C1)c1ccc(Br)cc1 (stereo not given),-7%
CCC(Oc1ccccc1)C(=O)Nc1ccc(S(=O)(=O)Nc2cc(C)on2)cc1 (stereo not given),1%
CC(C)N(CC#CCC(O)(c1ccccc1)C1CCCC1)CCO (stereo not given),-16%
COc1cccc(C(=O)N2CCC(C(=O)Nc3cccc(Cl)c3)CC2)c1,-11%
COC(=O)CCNc1ccc2c(c1)OCCO2,3%
Cc1nc2nc(-c3cccs3)[nH]c2cc1Br,-9%
O=C(CC12CC3CC(CC(Br)(C3)C1)C2)Nc1cccc(S(=O)(=O)NC2=NCCC2)c1,5%

Following part
| structure | VDR inh |
| --- | --- |
| NNC(=O)c1ccc(Cn2cc(Br)c(N)n2)cc1 | 11% |
| COC(=O)CCCCCCCCC(O)CN1CCCCC1 (stereo not given) | -11% |
| COc1ccc(NC(=O)COC(=O)c2ccc(-n3cnnn3)cc2)c([N+](=O)[O-])c1 | 0% |
| O=C(COc1ccc(Br)cc1Br)NC1CCCC1 | 10% |
| COc1ccc(S(=O)(=O)N2CCN(C)CC2)cc1C(=O)Nc1ccccc1 | -3% |
| O=S(=O)(c1ccc(Br)s1)N1CCN(Cc2ccc3c(c2)OCO3)CC1 | 2% |
| COC(=O)[C@@]1(Cc2ccc(F)cc2)[C@H]2c3cc(C(=O)N4CCCC4)n(CCCNc4ncc(C(F)(F)F)cc4Cl)c3C[C@H]2CN1C(=O)c1ccccc1 | 5% |
| Cn1ccsc1=NC(=O)c1ccc(Cl)cc1 | 3% |
| COc1cc(COC(=O)c2cnc(C)cn2)c(OC)cc1Br | -1% |
| Cc1nnc(C)n1/N=C/c1cc(Br)cc(Br)c1O | -6% |
| CCS(=O)(=O)N1CCc2cc(C(=O)N3CCN(c4cccc(C(F)(F)F)c4)CC3)ccc21 | 10% |
| CS(=O)(=O)Nc1cccc(-c2nc(Nc3ccc(F)cc3)c3ccccc3n2)c1 | 3% |
| CCCCCCCCCCCCCCCCCCCCCC(=O)Nc1ccn([C@@H]2O[C@H](CO)[C@@H](O)[C@@H]2O)c(=O)n1 | 17% |
| CCOC(=O)C1C(=O)C=C(C)C(C(=O)OCC)C1c1ccc(OC)cc1 (stereo not given) | 7% |
| Cc1ccc(C2=NOC(=O)/C2=C\c2ccc(C)o2)cc1 | ? |
| Cc1cc(C)c2c(N)c(C(=O)Nc3ccccc3F)sc2n1 | -1% |
| COc1ccc(OC)c2sc(NC(=O)C(C)C)nc12 | -5% |
| CCCc1nnc(NC(=O)CCC(=O)N2CCN(C3CCCC3)CC2)s1 | -18% |
| COC(=O)c1oc2ccc(OC)cc2c1N | 3% |
| CC(=O)c1ccccc1NS(=O)(=O)c1cc2c(cc1C)NC(=O)CO2 | 7% |
| CN(C)c1ccc(C(CNC(=O)c2ccccc2F)N2CCc3ccccc32)cc1 (stereo not given) | 11% |
| NC(=O)CSCc1nc2ccccc2s1 | 16% |
| COc1ccc(OCC(O)Cn2cnc(-c3ccc(Br)cc3)c2)cc1 (stereo not given) | -15% |
| O=C(Cn1cnc2cc([N+](=O)[O-])ccc2c1=O)NC(=O)NCc1ccccc1 | -6% |
| S=C(NCc1ccco1)N1CCN(c2nc(-c3ccccc3)cs2)CC1 | 5% |

5 entries from above, with values ahead of the structure.
VDR inh | Structure
-6% | Cc1nnc(C)n1/N=C/c1cc(Br)cc(Br)c1O
10% | CCS(=O)(=O)N1CCc2cc(C(=O)N3CCN(c4cccc(C(F)(F)F)c4)CC3)ccc21
3% | CS(=O)(=O)Nc1cccc(-c2nc(Nc3ccc(F)cc3)c3ccccc3n2)c1
17% | CCCCCCCCCCCCCCCCCCCCCC(=O)Nc1ccn([C@@H]2O[C@H](CO)[C@@H](O)[C@@H]2O)c(=O)n1
7% | CCOC(=O)C1C(=O)C=C(C)C(C(=O)OCC)C1c1ccc(OC)cc1 (stereo not given)

In the list so far, these have a COOH group:
| structure | VDR inh |
| --- | --- |
| COc1ccccc1N1CCN(C(=O)Cc2c(C(=O)O)c(C)cn2C)CC1 | 12% |
| O=C(O)c1ccc(N/N=C/c2cn(Cc3ccc(F)cc3)c3ccccc23)cc1 | ? |
| C/C(=C\C(=O)O)C(=O)Nc1nccs1 | 13% |
| NC(Cc1cccc2nsnc12)C(=O)O (stereo not given) | 4% |
| Cc1sc(-n2c(C)cc(C=O)c2C)c(C(=O)O)c1C | 5% |
| O=C(O)CSCc1nc2cccnc2n1C1CCCCC1 | 22% |

The list continues.
| structure | VDR inh |
| --- | --- |
| COc1cc(C(=S)N2CCC(C)CC2)ccc1O | -24% |
| c1ccc2c(c1)nc(NCC1CCCO1)c1nnnn12 (stereo not given) | 10% |
| CCc1ccccc1NC(=O)C1=CC(c2cccs2)=NS(=O)(=O)N1C | 9% |
| COc1ccc(SC[C@H](Cc2ccccc2)N2CC[C@@H](C)CCC2=O)cc1 | -9% |
| CCCCc1nnc(NC(=O)c2ccc3[nH]c(=O)c(=O)[nH]c3c2)s1 | 0% |
| CCOC(=O)c1ccc(CN(Cc2ccccc2)S(=O)(=O)c2cccc([N+](=O)[O-])c2)cc1 | -3% |
| COc1ccc(C(=O)CSc2nnc(CNc3ccc(C)cc3C)o2)cc1 | -10% |
| Clc1ccccc1CSc1ncn(-c2ccccc2)n1 | -6% |
| N#Cc1c(NC(=O)CSc2nc(-c3ccco3)cc(C(F)(F)F)n2)sc2c1CCCC2 | -23% |
| COc1ccc(Cn2c(SCc3ccc(C)cc3)nc3cc(OC)c(OC)cc3c2=N)cc1Cl | 56%[activator] |
| CCCCCCCCCCOc1cc(OCCCCCCCCCC)cc(N(CC(=O)O)CC(=O)O)c1 | 50µM* |
| CN(C#N)c1nccc(-c2cccs2)n1 | -17% |
| COc1ccc(C(=O)c2ccc(N3CCOCC3)cc2)c(OC)c1 | ? |
| CNC(=O)NC(=O)C(C)OC(=O)c1cc2c(s1)CCCCC2 (stereo not given) | -10% |
| CC(C)(C)C(=O)/C=c1\s/c(=C\c2ccc(-c3ccc([N+](=O)[O-])cc3)o2)c(=O)n1CC(=O)NC(N)=O | 5% |
